Screens (PubChem BioAssay)
Rango-impB inh: Rango-importin beta binding inhibition; 0.031% of 340,000 active; Q14974; Potency, µM (doses to about 92.2 µM), inactives show at the top dose inhibition of complex formation; Rango CFP/YFP FRET sensor + importin beta, 45 min; AID 540263; active = rising FRET ratio curve, often small or poorly fitted; inconclusive = mostly compound fluorescence or quenching in the first reads; inactive = flat curves in all reads;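 further: potency means the concentration at half of the fitted maximal effect; 0% = DMSO wells and 100% = buffer wells lacking importin beta; nearly all actives have a fitted effect of over 15% in size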
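FRET biosensor Rango (snurportin 1 IBB between N-terminal EYFP and C-terminal Cerulean), 50 nM in PBS/1 mM DTT/0.02% Tween-20/0.1% BSA, preincubated 5 min RT with compound; 0.125 microM importin beta added, 45 min RT, CFP/YFP FRET ratio read.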
Rango release inh: inhibitors of RanGTP-induced Rango-importin beta complex dissociation; O95149+P62826; 0.071% of 340,000 active; AID 540253; Biochemical FRET Rango-importin beta, RanGTP-induced dissociation; Potency, µM (top dose mostly 46.1 µM), for inactives: top-dose activity change, negative = inhibition; active means falling FRET ratio curve, often poorly fitted, with flat reads before Ran was added; inconclusive means other falling curves, or compound fluorescence or quenching; inactive means flat or rising ratio curve;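 further: potency means the concentration at half of the fitted maximal effect; % of control where 0% means no effect; nearly all actives have a fitted effect of over 45% in size; -100% = wells without RanGTP and RCC1; the record marks most hits as doubtful in a second field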
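Rango/importin beta premix (0.1/0.25 uM final), PBS + 1 mM DTT + 0.02% Tween-20 + 0.1% BSA; cpd 5 min RT; FRET pre-read; + RanGTP-RCC1 (0.6 uM Ran, 2 mM GTP, 0.2 uM RCC1); 45 min RT; FRET post-read, ex 430, em 486/530 nm.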
miR-21 reporter: raises the signal of a miR-21 reporter; HeLa miR-21 FLuc reporter, luciferase, 48 h; Potency, µM (highest dose often 38.3 µM), for inactives: at the top dose reporter change, positive = more light; 340,000 tested, under 10 active; AID 2288; active = well fitted rising curve with a large enough effect; inconclusive = small, poorly fitted or top-dose-only effect; inactive = no such curve, though single readings can be large or run the other way;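 further: % of control where 0% means no effect; miR-21 action dims this reporter so a rising signal means less miR-21 action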
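Compounds were titrated across several concentrations (up to approximately 40 uM) and incubated 48 hours with HeLa miR-21-FLuc reporter cells (miR-21 target sequence downstream of FLuc, endogenous miR-21). Readout was firefly luciferase luminescence after lytic detection reagent.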
GLA inh pH 4.5: inhibitors of human alpha-galactosidase A at pH 4.5. P06280. purified enzyme, 4-MU-alpha-Gal fluorescence, pH 4.5. activity change, negative = inhibition, % at 105 µM. 230,000 tested, under 10 active; inconclusive = small, poorly fitted or top-dose-only inhibition, or a rising curve; inactive = flat fitted curve, though single readings scatter; no compound was filed as active;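 further: 0% = full activity with enzyme and -100% = basal without enzyme; dose as in the result columns while the protocol names 77 µM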
Target sequence (P06280 whole entry, looked up): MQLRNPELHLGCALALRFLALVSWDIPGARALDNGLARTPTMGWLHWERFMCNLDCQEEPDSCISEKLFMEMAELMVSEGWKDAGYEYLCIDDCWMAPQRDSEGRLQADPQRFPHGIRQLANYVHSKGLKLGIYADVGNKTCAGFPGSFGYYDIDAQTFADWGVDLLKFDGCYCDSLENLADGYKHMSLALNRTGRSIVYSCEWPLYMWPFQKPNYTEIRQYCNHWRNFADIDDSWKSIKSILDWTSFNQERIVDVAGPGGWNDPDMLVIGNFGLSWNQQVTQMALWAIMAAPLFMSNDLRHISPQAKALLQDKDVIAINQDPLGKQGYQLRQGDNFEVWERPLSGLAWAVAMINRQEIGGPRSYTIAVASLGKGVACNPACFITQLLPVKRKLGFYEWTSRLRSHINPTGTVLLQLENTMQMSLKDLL
Numbers without * were called inactive.

Screening COc1ccc(C(C)=O)cc1COC(=O)CSC(C)C(=O)Nc1cc(C)on1 (centres undefined) returned Rango-impB inh 0.0% and Rango release inh 29%.
For COc1ccc(-n2nc3c(c2NC(=O)COc2ccccc2)CS(=O)(=O)C3)cc1 the results were Rango-impB inh -0.9%, Rango release inh 9% and miR-21 reporter -4%.
`COc1ccc(NC(=O)c2ccco2)cc1NC(=O)c1c(F)c(F)c(OC)c(F)c1F` gave Rango-impB inh -0.6%, Rango release inh 0%, miR-21 reporter -5% and GLA inh pH 4.5 -11.
For CCOc1cc(C2C3=C(CC(C)(C)CC3=O)N(C)C3=C2C(=O)CC(C)(C)C3)ccc1O the results were Rango-impB inh inconclusive, Rango release inh -10% and miR-21 reporter -5%.
For COc1ccc(OCC(O)CNC(C)c2ccccc2)cc1 (centres undefined) the results were Rango-impB inh -0.4%, Rango release inh -9% and miR-21 reporter -2%.
`O=S(=O)(Cc1ccc(Cl)cc1)c1ccccc1-c1nnc(-c2ccccc2)o1` gave Rango-impB inh 0.5%, Rango release inh -5%, miR-21 reporter -5% and GLA inh pH 4.5 1.
Cc1nn(C(C)C(=O)O)c(=O)c2c1sc1ccccc12 (centres undefined) was read as Rango-impB inh 1.7%, Rango release inh 13% and miR-21 reporter -28%.
Screening CCOc1cc(NC(=S)NCc2ccco2)c(OCC)cc1NC(=O)c1ccco1 returned Rango-impB inh 1.7%, Rango release inh 0%, miR-21 reporter -4% and GLA inh pH 4.5 3.
Cc1nn(C)c(C(=O)NNC(=O)NC2CCCCC2)c1Cl was read as Rango-impB inh -0.1%, Rango release inh 0% and miR-21 reporter 4%.
Screening Cc1ccc(SCc2ccc(C(=O)Nc3cccc([N+](=O)[O-])c3C)cc2)cc1 returned Rango-impB inh -1.7%, Rango release inh -15%, miR-21 reporter 0% and GLA inh pH 4.5 9.
`CCOCCCn1c(SCc2nc3sc(C(=O)O)c(C)c3c(=O)[nH]2)nnc1-c1ccc(Cl)cc1` gave Rango-impB inh -3.5%, Rango release inh -22%, miR-21 reporter 0% and GLA inh pH 4.5 4.
Screening CCOc1ccc(N2C(=O)Nc3ccccc3C2(O)C(=O)NCc2ccc3c(c2)OCO3)cc1 (centres undefined) returned Rango-impB inh -5.3%, Rango release inh -10%, miR-21 reporter -11% and GLA inh pH 4.5 2.
CCOC(=O)N1CCN(C(=O)c2cc3c(=O)n(C)c4ccccc4c3n2C)CC1 was read as Rango-impB inh 3.7%, Rango release inh 10%, miR-21 reporter 0% and GLA inh pH 4.5 -2.
`CN(C)S(=O)(=O)c1ccc(Cl)c(NC(=O)CN2CCCC2)c1` gave Rango-impB inh 1.4%, Rango release inh 30% and miR-21 reporter -1%.
C[C@]12c3[nH]c4cc(-c5ccco5)ccc4c3CCN1C(=O)[C@@H](CC(=O)NCc1ccco1)C[C@@H]2C(=O)N1CCCCC1 was read as Rango-impB inh -4.5% and Rango release inh 14%.
Screening Cc1cc2c(c(=O)o1)C(Cc1ccccc1)C(C#N)=C(N)O2 (centres undefined) returned Rango-impB inh inconclusive, Rango release inh inconclusive, miR-21 reporter -3% and GLA inh pH 4.5 0.
For CCOc1ccc(/C=N/NC(=O)COc2ccccc2-c2ccccc2)cc1 the results were Rango-impB inh -0.2%, Rango release inh -1%, miR-21 reporter -7% and GLA inh pH 4.5 1.
Screening CCOC1=NS(=O)(=O)c2ccccc21 returned Rango-impB inh -0.3%, Rango release inh 2%, miR-21 reporter -6% and GLA inh pH 4.5 4.
O=C(Nc1ccccc1)Nc1nnc(SCc2ccc(Cl)cc2)s1 was read as Rango-impB inh -2.9%, Rango release inh -6%, miR-21 reporter -13% and GLA inh pH 4.5 2.
Screening COc1ccc(NC(=O)c2c(-c3ccccc3Cl)noc2C)c(OC)c1 returned Rango-impB inh -2.9%, Rango release inh -19%, miR-21 reporter 8% and GLA inh pH 4.5 -5.

The final 4 entries of the part before come first, to join the parts:
For CCOc1ccc(/C=N/NC(=O)COc2ccccc2-c2ccccc2)cc1 the results were Rango-impB inh -0.2%, Rango release inh -1%, miR-21 reporter -7% and GLA inh pH 4.5 1.
Screening CCOC1=NS(=O)(=O)c2ccccc21 returned Rango-impB inh -0.3%, Rango release inh 2%, miR-21 reporter -6% and GLA inh pH 4.5 4.
O=C(Nc1ccccc1)Nc1nnc(SCc2ccc(Cl)cc2)s1 was read as Rango-impB inh -2.9%, Rango release inh -6%, miR-21 reporter -13% and GLA inh pH 4.5 2.
Screening COc1ccc(NC(=O)c2c(-c3ccccc3Cl)noc2C)c(OC)c1 returned Rango-impB inh -2.9%, Rango release inh -19%, miR-21 reporter 8% and GLA inh pH 4.5 -5.
For O=C(CCNC(=O)c1ccc(Br)cc1)NCc1ccccn1 the results were Rango-impB inh 1.9% and Rango release inh 0%.
`COc1cccc(-c2c(-c3cc(OC)cc(OC)c3)n(C)c3ccc(-c4ccc5cc[nH]c5c4)cc23)c1` gave Rango-impB inh 0.7% and Rango release inh 2%.
Screening COc1ccccc1CNC(=O)CSC(=S)N1CCCC1 returned Rango-impB inh 0.2% and Rango release inh -10%.
For COc1cccc(NC(=O)CN2C(=O)NC3(CCCC3)C2=O)c1 the results were Rango-impB inh -3.8%, Rango release inh 41% and miR-21 reporter 0%.
`CCC(C(=O)NCc1ccc(C)o1)n1nc(C)c2c(C)n(-c3ccccc3)nc2c1=O` (centres undefined) gave Rango-impB inh 0.7%, Rango release inh 2% and miR-21 reporter 0%.
For O=C(Cn1cc(C(=O)c2cccs2)c2ccccc21)NCc1ccc2c(c1)OCO2 the results were Rango-impB inh 1.7%, Rango release inh -1%, miR-21 reporter 2% and GLA inh pH 4.5 -5.
CCN(Cc1ccccc1)S(=O)(=O)c1nc2nc(C)c(C)c(C)n2n1 was read as Rango-impB inh -2.9%, Rango release inh -5%, miR-21 reporter -6% and GLA inh pH 4.5 -3.
Screening CC(C)NC(=O)NNC(=O)c1nn(-c2ccc(F)cc2)ccc1=O returned Rango-impB inh 1.6%, Rango release inh 12%, miR-21 reporter -1% and GLA inh pH 4.5 4.
COc1cc(C(c2c(C)[nH][nH]c2=O)c2c(C)[nH][nH]c2=O)cc(Br)c1OC was read as Rango-impB inh inconclusive, Rango release inh -13% and miR-21 reporter 0%.
For CC(=O)/C(=N\Nc1ccccc1Cl)Sc1cccc2cccnc12 the results were Rango-impB inh 1.0%, Rango release inh -3%, miR-21 reporter -14% and GLA inh pH 4.5 3.
Screening COc1ccccc1-c1cc(C(F)(F)F)nc(S(=O)(=O)CCCC(=O)N2CCCCC2C)n1 (centres undefined) returned Rango-impB inh 2.2%, Rango release inh 1%, miR-21 reporter inconclusive and GLA inh pH 4.5 -1.
Screening Oc1cc2ccccc2cc1-c1n[nH]c(=S)o1 returned Rango-impB inh -1.2%, Rango release inh -20%, miR-21 reporter -26% and GLA inh pH 4.5 7.
`CCN(CC)CCN1c2ccccc2Sc2ccc3ccccc3c21` gave Rango-impB inh 2.3%, Rango release inh -19%, miR-21 reporter 5% and GLA inh pH 4.5 -10.
`Cc1ccc(S(=O)(=O)N2CCOCC2)cc1C(=O)NC1CCCC1` gave Rango-impB inh -1.2%, Rango release inh 5% and miR-21 reporter 2%.
For Cc1ccc(OCCSc2nnc(NC(=O)c3ccco3)s2)cc1 the results were Rango-impB inh -0.8%, Rango release inh 1%, miR-21 reporter -9% and GLA inh pH 4.5 2.
`COc1ccc(C2c3c(ccc4ccccc34)Oc3ncn4nc(-c5ccco5)nc4c32)cc1OC` (centres undefined) gave Rango-impB inh -0.5%, Rango release inh -13%, miR-21 reporter -9% and GLA inh pH 4.5 -11.
`CC[C@H](C)[C@H]1CNC(=S)N1CC1CCN(CCC(C)(C)C)CC1` gave Rango-impB inh 0.9% and Rango release inh 23%.
`COC(=O)c1c(-c2ccc(F)cc2)csc1NC(=O)c1ccco1` gave Rango-impB inh 1.4%, Rango release inh -2%, miR-21 reporter -59% and GLA inh pH 4.5 -8.
For COc1ccc(C(N)=S)c(OC)c1 the results were Rango-impB inh -3.1%, Rango release inh 1%, miR-21 reporter -1% and GLA inh pH 4.5 -3.
For CCn1c(Cn2nnc(-c3ccccc3)n2)nnc1SCc1ccc(Cl)c(Cl)c1 the results were Rango-impB inh -1.5%, Rango release inh -20%, miR-21 reporter 1% and GLA inh pH 4.5 -6.
O=C(CCN1C(=O)c2ccccc2C1=O)CN1CCOCC1 was read as Rango-impB inh -4.6%, Rango release inh -12%, miR-21 reporter 18% and GLA inh pH 4.5 4.
For C/C(=N/NC(=O)c1ccc2nc[nH]c2c1)c1cccs1 the results were Rango-impB inh 3.6%, Rango release inh 5%, miR-21 reporter -42% and GLA inh pH 4.5 4.
Screening CC1CCN(S(=O)(=O)c2cc(Cl)ccc2Br)CC1 returned Rango-impB inh 4.0%, Rango release inh 23%, miR-21 reporter -6% and GLA inh pH 4.5 -1.
Cc1ccc(C2(C)NC(=O)N(CC(=O)NNC(=O)c3ccccc3)C2=O)cc1 (centres undefined) was read as Rango-impB inh -1.3% and Rango release inh -2%.
`COCCn1c(SCC(=O)N2CCCCC2)nc2ccccc2c1=O` gave Rango-impB inh -0.5%, Rango release inh 0%, miR-21 reporter -1% and GLA inh pH 4.5 1.
Screening Cc1cc(NC(=O)c2cc([N+](=O)[O-])cc([N+](=O)[O-])c2)no1 returned Rango-impB inh -0.4%, Rango release inh -4%, miR-21 reporter 4% and GLA inh pH 4.5 -26.
For CCOC(=O)C1=C(C)Nc2ncnn2C1c1ccc2c(c1)OCO2 (centres undefined) the results were Rango-impB inh -3.6%, Rango release inh -4%, miR-21 reporter -4% and GLA inh pH 4.5 1.
`CC(=O)Nc1cccc(-c2cnc(N)c(C(=O)c3cccnc3)n2)c1` gave Rango-impB inh inconclusive and Rango release inh 23%.
Screening NS(=O)(=O)c1ccc(CCNC(=O)Cn2c(=O)c3cccn3c3cccnc32)cc1 returned Rango-impB inh -0.7%, Rango release inh 7% and miR-21 reporter 2%.
Screening O=C(NC1CCSC1=O)C1CCCCC1 (centres undefined) returned Rango-impB inh 5.7%, Rango release inh -7%, miR-21 reporter -1% and GLA inh pH 4.5 -10.
Screening CCCn1c(N)c(C(=O)COC(=O)CNC(=O)c2ccccc2OCC)c(=O)[nH]c1=O returned Rango-impB inh inconclusive and Rango release inh 7%.
Screening Cc1nc2oc3ccc(F)cc3c(=O)c2cc1C(=O)NC(C)(C)C returned Rango-impB inh -4.0%, Rango release inh -8%, miR-21 reporter -48% and GLA inh pH 4.5 -2.
For O=C(NC(=S)Nc1cc(-c2nc3ccccc3[nH]2)ccc1Cl)c1ccc2c(c1)OCO2 the results were Rango-impB inh 6.0%, Rango release inh -15%, miR-21 reporter -4% and GLA inh pH 4.5 -5.
For Cc1ccc(-c2csc3ncnc(Cl)c23)cc1 the results were Rango-impB inh -4.2%, Rango release inh 11%, miR-21 reporter -1% and GLA inh pH 4.5 -8.
`CCOc1ccc(S(=O)(=O)N(C)c2ccc(OCC(=O)NC3=NCCS3)cc2)cc1` gave Rango-impB inh 0.4%, Rango release inh 1%, miR-21 reporter 3% and GLA inh pH 4.5 -5.
Screening O=C(O)C1CCC(=O)N(C2CCCCC2)C1c1ccccc1 (centres undefined) returned Rango-impB inh 1.3%, Rango release inh -5%, miR-21 reporter -3% and GLA inh pH 4.5 -3.
Screening CC(/C=C/c1ccc2c(c1)OCO2)=N\NC(=O)c1cccc([N+](=O)[O-])c1 returned Rango-impB inh -3.2%, Rango release inh -15%, miR-21 reporter 1% and GLA inh pH 4.5 -7.
Screening N#Cc1c(F)cccc1N1CCOCC1 returned Rango-impB inh -0.1%, Rango release inh -7%, miR-21 reporter -7% and GLA inh pH 4.5 6.

Among those listed so far, these contain a cyano group.
Screening Cc1cc2c(c(=O)o1)C(Cc1ccccc1)C(C#N)=C(N)O2 (centres undefined) returned Rango-impB inh inconclusive, Rango release inh inconclusive, miR-21 reporter -3% and GLA inh pH 4.5 0.
Screening N#Cc1c(F)cccc1N1CCOCC1 returned Rango-impB inh -0.1%, Rango release inh -7%, miR-21 reporter -7% and GLA inh pH 4.5 6.

Only part of the results is shown (hit frequency here may not be typical).
